Cruzain inh Det: qHTS Assay for Promiscuous and Specific Inhibitors of Cruzain (with detergent); hit rate 0.43% among 200,000; purified cruzain, Z-FR-AMC fluorescence, 0.01% Triton; Cruzipain (Trypanosoma cruzi), P25779; Potency, µM, for the others: max response, negative = inhibition, hits mostly inhibitors;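 further: plate controls were neutral wells for no effect and buffer without enzyme for full effect; nearly all actives have a fitted effect of over 40% in size; top concentration of the series not given in the record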
Target sequence (P25779 123-467 limits assumed): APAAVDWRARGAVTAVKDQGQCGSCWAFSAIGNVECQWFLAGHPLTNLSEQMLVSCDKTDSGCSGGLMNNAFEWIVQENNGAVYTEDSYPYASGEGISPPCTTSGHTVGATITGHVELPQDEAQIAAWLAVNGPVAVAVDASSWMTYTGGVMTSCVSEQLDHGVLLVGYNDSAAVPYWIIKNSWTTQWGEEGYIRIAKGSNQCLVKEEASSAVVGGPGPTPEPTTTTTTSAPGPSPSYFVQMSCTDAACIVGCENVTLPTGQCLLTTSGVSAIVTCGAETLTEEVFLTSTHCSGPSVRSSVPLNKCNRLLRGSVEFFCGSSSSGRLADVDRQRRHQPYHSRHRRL
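Sodium acetate buffer (100 mM, pH 5.5) containing 5 mM DTT and 0.01% Triton X-100 hosted 1.5 nM cruzain and test compound for 15 min at room temperature. Cleavage of 2 uM Z-FR-AMC was then tracked by fluorescence.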
StopGo reporter: High Throughput Screening for Foot and Mouth Disease Virus Antivirals | human cells with a luciferase reporter of 2A StopGo recoding; control for the full effect not named in the record | Potency, µM (titrated, usually from 57.9 µM), without a hit: at the highest dose signal change, negative = less light | hit rate 1.2% among 410,000 | AID 1159524, 2015; active = well fitted falling curve with a large enough effect; inconclusive = small, poorly fitted or top-dose-only effect; inactive = no such curve, though single readings can be large or run the other way; tested in HEK293T cells; further: nearly all actives have a fitted effect of over 45% in size; luciferase light after 4 h
Cruzain inh noDet: qHTS Assay for Promiscuous and Specific Inhibitors of Cruzain (without detergent). Cruzipain (Trypanosoma cruzi), P25779. purified cruzain, Z-FR-AMC fluorescence, no detergent. Potency, µM, for the others: max response, negative = inhibition, hits mostly inhibitors. hit rate 2.3% among 200,000;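 further: plate controls were enzyme without inhibitor for no effect and buffer without enzyme for full effect; nearly all actives have a fitted effect of over 40% in size; top concentration of the series not given in the record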
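Purified cruzain at 1.5 nM, pre-incubated 15 min with compound at room temperature in 100 mM sodium acetate pH 5.5, 5 mM DTT, 0.00005% Triton X-100. Reaction started with 2 uM Z-FR-AMC; AMC fluorescence increase over 60 s gives rate.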
Starred values were filed as active, the others as inactive; ? = inconclusive; & = joins results of further samples; [ ] = another dose, or the depositor's remark. Unless noted, the call rests on the fitted dose curve; in most records, active means well fitted curve in the direction sought with a large enough effect; inconclusive means small, poorly fitted or top-dose-only effect, or another doubt; inactive means no such curve, though single readings can be large; an effect the other way counts as inactive or inconclusive. Unless noted, on the % scale 0 is the no-effect control and ±100 the full control effect; potency means the concentration at half of the fitted maximal effect. An excerpt. The share of hits here may be higher or lower than overall.

SMILES	Cruzain inh Det	StopGo reporter	Cruzain inh noDet
N#Cc1cccc(-c2nc3cnc(N4CCNCC4)nc3n(C3CC3)c2=O)c1	-27%	-9%	-26%
COCCNc1ncnc2ccc(-c3cccc(NS(C)(=O)=O)c3)cc12	3.1%	?	1%
Cn1c(=O)cnc2cnc(OCc3ccccc3)nc21	-3.6%	2%	-6%
CS(=O)(=O)N1CCC2(CC1)CN(Cc1cc(C(F)(F)F)cc(C(F)(F)F)c1)C2	4.6%	-11%	-3%
COc1cccc(-c2nc(NC3CCNCC3)c3ccccc3n2)c1	7.9%	-14%	-6%
Cc1cnc(CNc2cc(-c3ccoc3)ncn2)cn1	-0.4%	-23%	23%
COc1cccc(Cn2c(=O)c(-c3cc(F)cc(F)c3)nc3cnc(N(C)C)nc32)c1	-0.2%	-9%	-7%
O=C(c1cnccn1)N1CCC2(CC1)CCN(c1cccc(-c3ccccc3)c1)CC2	-1.6%	?	?
COc1ccc(C(=O)N2CCC3(CCN(Cc4ccc(C#N)cc4)CC3)CC2)cc1	3.6%	-22%	-5%
O=c1c(-c2ccccc2)nc2cnc(Oc3cccc(Cl)c3)nc2n1C1CC1	-1.5%	-20%	?
CC(=O)OC1CC(OC(C)=O)[C@]2(C)C(CC(O)[C@]3(C)C2CC[C@@]2(C)C(c4ccoc4)OC(=O)C4O[C@]432)C1(C)C (stereo partly drawn)	-3.6%	-10%	?
CC(C)(c1ccc(OCC2CO2)cc1)c1ccc(OCC2CO2)cc1 (stereo not drawn)	-5.2%	?	10%
CN1CCCC2(CCN(C(=O)c3cc(C(F)(F)F)cc(C(F)(F)F)c3)CC2)C1	1.7%	-3%	5%
CC(=O)NCCNc1nc(-c2ccc(N(C)C)cc2)nc2ccccc12	-7.2%	13%	-8%
O=c1c(-c2cccs2)nc2cnc(Nc3ccccc3)nc2n1C[C@H]1CCCO1	3.7%	?	2%

Record cards (already shown). Screens in order: Cruzain inh Det | StopGo reporter | Cruzain inh noDet
`COc1cccc(Cn2c(=O)c(-c3cc(F)cc(F)c3)nc3cnc(N(C)C)nc32)c1` as listed: -0.2% | -9% | -7%
`CC(=O)OC1CC(OC(C)=O)[C@]2(C)C(CC(O)[C@]3(C)C2CC[C@@]2(C)C(c4ccoc4)OC(=O)C4O[C@]432)C1(C)C` (stereo partly drawn) as listed: -3.6% | -10% | ?
`COc1ccc(C(=O)N2CCC3(CCN(Cc4ccc(C#N)cc4)CC3)CC2)cc1` as listed: 3.6% | -22% | -5%

Other compounds
SMILES	Cruzain inh Det	StopGo reporter	Cruzain inh noDet
Cc1noc(C)c1C(=O)N1CCC2(CCN(C(=O)Nc3ccccc3)CC2)CC1	1.0%	-6%	-3%
COCC(=O)N1CCC2(CC1)CCN(C(=O)Nc1cccc(C#N)c1)CC2	3.3%	-2%	16%
Cc1cnc(CNc2ccnc(-c3cccnc3)n2)cn1	-3.6%	-14%	7%
CCNc1ncc2nc(-c3cccc(C#N)c3)c(=O)n(CCC#N)c2n1	-2.5%	-1%	14%
NC(=NC1C2CC3CC(C2)CC1C3)Nc1ccc(I)cc1 (stereo not drawn)	-2.5%	-17%&0%&-25%	-8%
N#CCCn1c(=O)cnc2cnc(OCc3ccccc3)nc21	2.2%	7%	-7%
CC(=O)[C@@]1(O)[C@H](O)CC2C3CCC4CC(O)CC[C@]4(C)C3CC[C@@]21C (stereo partly drawn)	1.1%	-5%	-2%
COc1ccccc1-c1nccc(-n2ccnc2)n1	6.6%	5%	1%
CC(=O)N[C@@H](CSC/C=C(\C)CCC=C(C)C)C(=O)O	-5.7%	3%[6.7 µM]	5%
COc1ccc(-c2nc3cnc(Nc4ccccc4)nc3n(Cc3cccs3)c2=O)cc1	-0.1%	-8%	-1%
CCNc1ncc2nc(-c3cc(F)cc(F)c3)c(=O)n(Cc3cccs3)c2n1	1.5%	-10%	1%
CC(=O)OC1CC[C@@]2(C)C(CC[C@@]3(C)C2CC=C2C4CC(C)(C)CC[C@]4(C(=O)O)CC[C@@]23C)C1(C)C (stereo partly drawn)	3.2%	-7%	-5%
COCCn1c(=O)c(CCc2ccccc2)nc2cnc(N3CCN(C)CC3)nc21	-2.5%	-3%	0%
O=C(Nc1cccc(F)c1)N1CCCC2(CCN(C(=O)c3ccncc3)CC2)C1	3.0%	?	-1%
CC(=O)N1CCC[C@@]2(CCN(c3ccccc3)C2)C1	1.0%	5%	17%
COc1ccc(-c2nc3cnc(N(C)C)nc3n(CCc3ccccc3)c2=O)cc1	-1.3%	-5%	2%
O=c1c(-c2ccccc2)nc2cnc(Oc3ccccc3)nc2n1C[C@H]1CCCO1	-14%	-5%	-5%
CN(C)Cc1ccccc1-c1cc(NC2CC2)ncn1	2.7%	1%	-5%
N#CCCn1c(=O)c(-c2cc(F)cc(F)c2)nc2cnc(N3CCOCC3)nc21	-0.6%	-10%	-1%
COc1ccc(C(=O)N2CCC[C@@]3(CCN(c4cccc(-c5ccccc5)c4)C3)C2)cc1	-0.5%	-11%	-3%
O=c1c(-c2ccccc2)nc2cnc(Nc3ccccc3)nc2n1Cc1cccs1	-1.6%	-10%	-10%
COc1cccc(Cn2c(=O)c(-c3ccc(Cl)cc3)nc3cnc(N4CCNCC4)nc32)c1	-4.3%	2%	-8%
C=C1C2C[C@]3(C4CC5[C@@]6(C)CC[C@H](O)[C@@]5(C3CC2=O)C4[N+]([O-])(CC)C6)[C@@H]1O (stereo partly drawn)	2.0%	-7%	-10%
CC(=O)NCCNc1nc(-c2ccc3c(c2)OCO3)nc2ccccc12	-1.1%	5%	-9%
Cc1noc(C)c1C(=O)N1CCC2(CC1)CN(c1ncccn1)C2	-2.4%	-3%	2%
Cc1cnc(CNc2ncnc3ccc(-c4ccc5c(c4)OCO5)cc23)cn1	-4.3%	11%	-6%
COCC(=O)N1CCC2(CC1)CN(C(=O)Nc1cccc(F)c1)C2	-0.6%	6%	-18%
COCC(=O)N1CCC2(CCN(Cc3cc(C(F)(F)F)cc(C(F)(F)F)c3)CC2)CC1	-1.8%	-22%	11%
CN(Cc1ccco1)c1nc(-c2cccnc2)nc2ccccc12	-2.8%	-7%	-11%
COc1cc2c(cc1OC)[C@@H]1C(=O)c3ccc4c(c3OC1CO2)CC(C(C)C)O4 (stereo partly drawn)	-6.2%	?	?
Cc1nc2c(O)cccc2c(=O)[nH]1	1.3%	0%	-5%
COC(=O)[C@@]1(C)CCC[C@@]2(C)c3ccc(O)c(C(C)C)c3CCC21 (stereo partly drawn)	0.6%	?	-20%
CC1(C)C=Cc2c(cc3occ(-c4ccc5c(c4)OCO5)c(=O)c3c2O)O1	-0.7%	32%[activator]	17%
N#CCCn1c(=O)c(-c2cccs2)nc2cnc(N3CCNCC3)nc21	-9.3%	-15%	-3%
CC(=O)OC1CC2C(C)(C)C(=O)C=C[C@]2(C)C2CC[C@@]3(C)C(c4ccoc4)OC(=O)C4O[C@@]43[C@]12C (stereo partly drawn)	2.2%	?	29%
CCNc1ncc2nc(-c3ccc(F)cc3)c(=O)n(C[C@H]3CCCO3)c2n1	1.2%	-12%	20%
O=C(NCCNC[C@@H](O)COc1ccc(O)cc1)N1CCOCC1	3.7%&-4.9%	-2%	-4%&-13%
COc1ccc2[nH]cc(CCNc3ccnc(-c4cccnc4)n3)c2c1	0.3%	?	10%
Cc1noc(C)c1C(=O)N1CCC[C@@]2(CCN(Cc3ccccc3)C2)C1	0.1%	-10%	-8%
c1cncc(-c2cc(NCc3cccs3)ncn2)c1	1.4%	10%	-2%
CCCCCCCC/C=C\CCCCCCCC(=O)OC[C@@H](O)COP(=O)(O)O	-2.8%	3%[6.7 µM]	9%
O=C(c1cc(C(F)(F)F)cc(C(F)(F)F)c1)N1CCC2(CCCN(c3ccncc3)C2)CC1	0.5%	-14%	4%
COC(=O)CC1C(C)(C)C(=O)C2CC3=C(CC[C@]4(C)C3=CC(=O)OC4c3ccoc3)[C@@]1(C)C2=O (stereo partly drawn)	-5.1%	-17%	1%
O=C1CC(c2ccc(O[C@@H]3OC(CO)[C@@H](O)C(O)C3O)cc2)Oc2cc(O)ccc21 (stereo partly drawn)	1.2%	8%	-12%
Cc1cccc(CNc2cc(-c3ccccc3CN(C)C)ncn2)c1	-1.3%	-18%	3%

Ordered by length of the SMILES (highest first): part of the list above.
SMILES	Cruzain inh Det	StopGo reporter	Cruzain inh noDet
COC(=O)CC1C(C)(C)C(=O)C2CC3=C(CC[C@]4(C)C3=CC(=O)OC4c3ccoc3)[C@@]1(C)C2=O (stereo partly drawn)	-5.1%	-17%	1%
O=C(c1cc(C(F)(F)F)cc(C(F)(F)F)c1)N1CCC2(CCCN(c3ccncc3)C2)CC1	0.5%	-14%	4%
CCNc1ncc2nc(-c3ccc(F)cc3)c(=O)n(C[C@H]3CCCO3)c2n1	1.2%	-12%	20%
COc1ccc2[nH]cc(CCNc3ccnc(-c4cccnc4)n3)c2c1	0.3%	?	10%
Cc1cccc(CNc2cc(-c3ccccc3CN(C)C)ncn2)c1	-1.3%	-18%	3%

(more compounds)
SMILES	Cruzain inh Det	StopGo reporter	Cruzain inh noDet
Cc1ccccc1-c1ccc2ncnc(N(C)Cc3ccco3)c2c1	-2.1%	-16%	3%
CCCCC[C@@H](/C=C/C=C\C/C=C\C/C=C\CCCC(=O)O)OO	5.4%	-8%[0.463 µM]	-11%
Cc1noc(C)c1-c1nccc(N2CCN(C)CC2)n1	2.9%	3%	-11%
CC(=O)NCCNc1ncncc1-c1ccc(N(C)C)cc1	-1.2%	-8%	-4%
COc1ccc(-n2c(=O)cnc3cnc(Oc4cccc(Cl)c4)nc32)cc1	0.3%	-16%	?
COc1ccc(CNc2ncncc2-c2ccccc2C(F)(F)F)c(OC)c1	2.7%	-2%	1%
N#Cc1ccc(CN2CCCC3(CCNCC3)C2)cc1	-0.8%	-21%	-3%
COc1cc2c(cc1OC)C(C(=O)c1ccc(OC)c(OC)c1O)=NCC2	-1.8%	4%	-8%
COP(=O)(OC)OC(c1ccc(Cl)cc1)P(=O)(OC)OC (stereo not drawn)	-0.1%	-25%	2%
CCCCCCCCCCCCCCCCOCC(CO)OC (stereo not drawn)	1.6%	-12%[6.7 µM]	-4%
COCCn1c(=O)c(-c2cc(F)cc(F)c2)nc2cnc(Oc3ccccc3)nc21	-1.9%	-9%	-17%
CN(C)c1ncc2nc(-c3ccccc3)c(=O)n(C[C@H]3CCCO3)c2n1	-1.9%	4%	7%
CN1CCN(c2ncc3nc(-c4ccc(Cl)cc4)c(=O)n(CCC#N)c3n2)CC1	-28%	-8%	?
CCCCCC/C=C\CCCCCCCc1cccc(O)c1C(=O)O	-16%	-6%	?
C=C1C2=CC(=O)OC(c3ccoc3)[C@]2(C)CCC1[C@]1(C)C=CC(=O)C(C)(C)C1CC(=O)OC (stereo partly drawn)	4.3%	-19%	1%
COc1ccc(Oc2ncc3nc(-c4ccc(OC)cc4)c(=O)n(C)c3n2)cc1	5.8%	0%	0%
N#Cc1cccc(NC(=O)N2CC[C@@]3(CCCNC3)C2)c1	0.7%	0%	-17%
CN1CCN(c2ncc3nc(-c4cn(C)c5ccccc45)c(=O)n(CCC#N)c3n2)CC1	-0.6%	-12%	3%
CC(=O)N1CCC[C@@]2(CCN(c3ccncc3)C2)C1	0.8%	-12%	-6%
COc1ccccc1CNc1nc(-c2ccoc2)nc2ccccc12	-3.7%	?	25µM*
CC1(C)CC23C(=O)CCC(O)C2(C)CCC13 (stereo not drawn)	-2.1%	4%	0%
O=c1c(O)c(-c2ccccc2)oc2cc(O)ccc12	-7.2%	35%[activator]	-4%
COc1ccc(-n2c(=O)cnc3cnc(OC)nc32)cc1	-1.5%	-14%	-1%
CN(C)C(=O)c1ccc(-c2ccc3ncnc(N(C)C)c3c2)cc1	5.4%	-11%	-4%
CCNc1ncc2nc(C)c(=O)n(Cc3ccc(F)cc3)c2n1	2.6%	6%	0%
Cc1nc2cnc(N(C)C)nc2n(Cc2cccs2)c1=O	0.9%	-15%	-14%
CN(Cc1ccco1)c1nc(-c2cccc(C#N)c2)nc2ccccc12	-4.6%	0%	4%
COc1ccc(C(=O)N2CCC3(CCCN(Cc4ccccc4OC)C3)CC2)cc1	3.2%	-4%	-9%
CN1CC[C@@]2(CCCN(C(=O)Oc3ccccc3)C2)C1	3.6%	-17%	-3%
COCCn1c(=O)c(-c2ccc(Cl)cc2)nc2cnc(N3CCNCC3)nc21	-5.4%	-9%	?
Cc1cn2c(=O)c3ccccc3nc2n2c(=O)c3ccccc3nc12	0.4%	-12%	-5%
O=C1C(=O)N(Cc2ccc(Cl)c(Cl)c2)c2ccccc21	1.3%	-3%	?
CN1CCN(c2ncc3nc(-c4cccs4)c(=O)n(Cc4ccc(F)cc4)c3n2)CC1	-3.2%	-18%	21%

Screening results: PubChem BioAssay, National Center for Advancing Translational Sciences (NCATS)
